Prx2 Sm inh – Schistosoma Mansoni Peroxiredoxins (Prx2) | S. mansoni Prx2 activity coupled to TGR/GSH (TGR is thioredoxin glutathione reductase), NADPH fluorescence loss, qHTS; some inactives read as strong as hits | Schistosoma mansoni peroxiredoxin 2 (Prx2) | 65,000 compounds, 0.07% hits | AID 448, 2006 | Potency, µM; active means full or partial inhibition curve with a strong effect at the top dose; inconclusive means weaker partial or single-point curve; inactive means no accepted curve; also: series up to 57 µM; many of its hits are not listed in these tables
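Coupled assay in which S. mansoni TGR passes NADPH reducing equivalents via glutathione to Prx2, which reduces H2O2. Compounds were preincubated 15 min at room temperature with 25 nM TGR/50 nM Prx2 mix. Kinetic NADPH fluorescence loss (ex 365/em 450 nm) was monitored.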
LT uptake inh – qHTS Assay for Anthrax Lethal Toxin Internalization. Cells, anthrax lethal toxin internalization, FRET ratio (460/530). Potency, µM (doses to about 40 µM), for the others: at the highest dose activity change, negative = inhibition, most hits filed as inhibitors. 70,000 compounds, 0.67% hits; active = well fitted falling ratio curve with the 530 nm signal flat; inconclusive = other ratio curves, or a change in one channel alone; inactive = flat curves in the ratio and both channels; the % refers to the ratio; also: % is scaled to controls: 0 for no effect and ±100 for the full control effect; nearly all actives have a fitted effect of over 50% in size; tested in ME-180 cells; beta-lactamase reporter
The depositor's hits bear a star; ? = inconclusive; . = no result given; [ ] = remark or other dose. Potency is read from the fitted curve at half-maximal effect. Some of the compounds tested (hit frequency here may not be typical).

SMILES	Prx2 Sm inh	LT uptake inh
COc1ccc(C(C)=O)cc1CSc1nc2ccccc2o1	>57	.
CCOC(=O)c1c(NC(C)=O)sc2c(O)c(CN3CCN(CC)CC3)ccc12	>57	?
Fc1ccc(-c2ccc(-c3nn4c(-c5ccco5)nnc4s3)o2)cc1	>57	-7%
C[C@@H]1Nc2ccc(Cl)cc2S(=O)(=O)N1	>57	-3%
COC(=O)CCCc1nc2ccccc2s1	>57	?
CCCn1nnnc1NC(=O)CSc1ccc(Cl)cc1	>57	-4%
CCn1c(SCC(=O)c2[nH]c(C)c(C(C)=O)c2C)nnc1-c1ccncc1	>57	3%
Cn1c(=O)c(C(=O)CN2CCOCC2)c(N)n(Cc2ccccc2)c1=O	>57	-26%
COc1ccccc1C(=O)NCCNC(=O)c1ccco1	>57	6%
C[C@@]1([C@@H](NP(=O)(c2ccccc2)c2ccccc2)c2ccccc2)C[C@H]1CCO	.	-13%
COc1ccc(-n2c(Cc3cccn3C)nnc2SCC(=O)Nc2cc(Cl)ccc2OC)cc1	>57	?
C=CCn1c(-c2cccs2)nc2ccccc21	>57	-9%
CCN1CCN(C(=O)c2ccc3c(=O)n(Cc4ccccc4OC)c(=S)[nH]c3c2)CC1	>57	-6%
c1ccc(CCc2nn3c(-c4ccncc4)nnc3s2)cc1	>57	-1%
CCOC(=O)c1oc2ccccc2c1NC(=O)c1cccc(OC)c1	>57	?
CCOC(=O)c1[nH]c2c(c1C)C(=O)CC(c1ccco1)C2 (stereo not given)	>57	?
CC(C)=C1C(=O)C(c2ccccc2)=C2CN3C(=O)N(CCc4ccccc4)C(=O)[C@]3(Cc3ccc(C(F)(F)F)cc3)[C@H]21	>57	-5%
CC(C(=O)OCC(=O)Nc1ccc2c(c1)OCO2)N1C(=O)c2ccccc2C1=O (stereo not given)	>57	4%
O=C(O)c1cccc(COc2ccccc2Cl)c1	>57	?
O=C(c1ccc(Br)o1)N(Cc1ccccc1)c1ccccn1	.	-6%
CCn1cc(S(=O)(=O)CC(=O)Nc2ccc3c(c2)OCCO3)c2ccccc21	>57	3%
CO[C@@H]1COC(=O)[C@H](Cc2ccccc2)NC(=O)C/C=C\[C@@H](C)[C@H](OC)COC(=O)[C@@H](C)NC(=O)C/C=C\[C@H]1C	.	-1%[8 µM]
Cc1c(NC2=C(Cl)C(=O)N(c3ccccc3)C2=O)c(=O)n(-c2ccccc2)n1C	.	3%
O=C(CN(C1CCCCC1)S(=O)(=O)c1ccc(Cl)cc1)NCCCO	.	-10%
Cc1cc(NS(=O)(=O)c2ccc(NC(=O)COc3ccc(Cl)cc3)cc2)no1	>57	4%
Other structures:
SMILES	Prx2 Sm inh	LT uptake inh
O=C(CSc1nnc(-c2ccc(OC(F)F)cc2)o1)NC(=O)NCc1ccco1	>57	-1%
COC(C)(C)[C@]12CC(O)(C(C)C)ON1[C@H]1CCCCC1N2O (stereo not given in full)	>57	-7%
O=C1CC(c2ccccc2)n2ncnc2N1 (stereo not given)	>57	-7%
COc1ccc(NC(=O)CSc2nnc(COc3ccccc3)n2Cc2ccco2)cc1OC	>57	.
CC(C)COc1ccc(C(=O)CCN2CCCCC2)cc1	>57	-17%
CCCCn1c(NCCC)nc2c1c(=O)[nH]c(=O)n2C	>57	-5%
CCC(C)N1CC23C=CC(O2)C(C(=O)OC)C3C1=O (stereo not given)	>57	10%
C=CCN1C(=O)C2(C(C(=O)OCC)=C(N)Oc3c2c(=O)oc2ccccc32)c2ccccc21 (stereo not given)	>57	3%
COc1ccc(NC(=O)C2CCCN2C(=O)NCc2ccccc2)c(OC)c1 (stereo not given)	>57	-7%
COc1ccc(-c2nnc(SC3CCOC3=O)n2C2CCCCC2)cc1OC (stereo not given)	>57	-5%
O=C(O)/C=C\C=C/c1ccc2c(c1)OCO2	>57	-4%[8 µM]
COc1ccc(S(=O)(=O)NC(CC(=O)NCCc2ccc(OC)c(OC)c2)c2ccco2)cc1 (stereo not given)	>57	?
CCOC(=O)c1ccc(NC(=O)CSc2nc(SC)ns2)cc1	>57	-14%
Fc1ccc2nc(Nc3nc4c(s3)CCCC4)sc2c1	>57	-11%
CCn1c(-c2ccccc2O)n[nH]c1=S	.	-8%
COC(=O)c1cc(NC(=O)CSc2nnc(CN3CCOCC3)n2C)ccc1Cl	>57	?
COC(=O)c1cc2ccsc2n1Cc1cc(=O)n2ccccc2n1	>57	-14%
CCOc1ccc2c(C)c(C(=O)O)oc2c1OCC	>57	11%
CC(=O)N[C@H](c1ccccc1)[C@@]1(C)C[C@@H]1[C@@H](C)C(=O)Nc1ccc2ccccc2c1	>57	?
Cc1ccc(CNC(=O)Nc2ccccc2)cc1	>57	-7%
CC(C)(C)C(=O)Nc1ccccc1N1CCN(C(=O)c2ccc(Cl)cc2)CC1	>57	9%
CCOc1ccc(-n2c(=O)c3c4c(sc3n(CC(=O)NCc3ccco3)c2=O)CCC4)cc1	>57	-4%
CCc1ccc(S(=O)(=O)NCc2csc(-c3cccnc3)n2)s1	>57	-7%
CN(C)Cc1ccccc1-c1nccc(NC2CC2)n1	>57	-10%
O=C(Nc1cccc2ccccc12)c1cnccn1	>57	2%
The list goes on.
SMILES	Prx2 Sm inh	LT uptake inh
CC12CN3CCN(CC(C3)C1(O)CN1CCCCC1)C2 (stereo not given)	.	-36%
CCOc1ccc(NC(=O)CCN2CCCCC2)cc1	>57	-7%
CCCCn1c(SCC(=O)Nc2ccc(OC)cc2)nc2ccc(N3CCOCC3)cc2c1=O	>57	.
CC(=O)N1CN(Cc2ccccn2)Cc2c1sc1c2CCCC1	>57	6%
Cc1ccc(Cl)cc1N1CCN(C(=O)CCS(=O)(=O)c2cccc3nonc23)CC1	>57	-1%
CCCS(=O)(=O)N1CCCC(C(=O)N2CCC3(CC2)OCCO3)C1 (stereo not given)	?	3%
O=C(NCCN1CCOCC1)c1cc2ccccc2[nH]1	.	-7%
Cc1cc(C)cc(N2CCCn3c2nc2c3c(=O)n(CCN3CCOCC3)c(=O)n2C)c1	>57	-14%
O=C(Nc1ccc(Cl)c(Cl)c1)N1CCC(N2CCCCC2)CC1	>57	-20%
CCOC(=O)c1cnc(SCC(=O)NCc2ccco2)nc1N	>57	-16%
CCCCC(OC(=O)c1cc2occc2n1C)C(=O)NCC1CCCO1 (stereo not given)	>57	3%
COc1cc2nc(NC(=O)c3ccc(Cl)cc3)[nH]c(=O)c2cc1OC	>57	7%
COCCNC(=O)CN(C(=O)CCC(=O)Nc1cc(C)on1)c1cccc(C)c1C	>57	-2%
COc1cc(C2c3c(n[nH]c3C)C(=O)N2c2ccc(Br)cc2)ccc1O (stereo not given)	>57	?
CCN(CCCNC(=O)CN1C(=O)COc2ccccc21)c1cccc(C)c1	>57	10%
CC1CCN(C(=O)Cn2cc3c(n2)CCCC3)CC1	>57	13%
CC(=O)/C(C(=N)N1CCN(Cc2ccccc2)CC1)=C(\C)O	>57	-4%
O=S(=O)(c1ccccc1Cl)N1CCC(O)(c2ccc3c(c2)OCO3)CC1	>57	-1%
Cc1nnc(SCCN2CCOCC2)n1C	>57	-7%
C=CCNC(=O)NC(=O)COC(=O)COc1ccc(Br)cc1F	>57	7%
COc1ccc(-n2c(-c3ccco3)n[nH]c2=S)cc1	>57	-10%
COc1ccc2c(c1)S/C(=C\C(=O)c1ccncc1)N2C	.	1%
O=C(NC(=Nc1ccccc1)N1CCOCC1)Nc1ccccc1	>57	2%
c1ccc2c(c1)CNc1ccccc1C2	>57	4%
COc1ccccc1OCC(O)Cn1c(Br)nc2c1c(=O)[nH]c(=O)n2C (stereo not given)	>57	-10%
(continued)
SMILES	Prx2 Sm inh	LT uptake inh
Cc1ccc(C)c2[nH]c(=O)c(CCNC(=O)c3cc4ccccc4o3)cc12	>57	?
CCN1CCN(P2(=O)C=C(c3ccccc3)OC(c3ccccc3)=C2)CC1	>57	-2%
CCOc1ccccc1C1CC(=O)Nc2cc3c(cc21)OCO3 (stereo not given)	>57	-17%
CCCCC(CC)COC(=O)C(C#N)=C(c1ccccc1)c1ccccc1 (stereo not given)	.	?
Cc1cc2ncn(C(=O)c3c(-c4ccccc4Cl)noc3C)c2cc1C	.	2%
O=C1NC(=O)C(CC(=O)N(Cc2ccco2)C2(C(=O)NC3CCCCC3)CCCCC2)N1 (stereo not given)	>57	10%
Cc1ccnc2nc(C(=O)OCCOc3ccccc3)nn12	>57	17%
COCCn1nnnc1C(C(C)C)N1CCN(C(=O)c2ccco2)CC1 (stereo not given)	>57	-1%
COc1ccc2cnn(CCOc3ccccc3)c(=O)c2c1OC	>57	?
COc1ccc(CC(=O)Nc2ccc(-c3noc(-c4cc(OC)c(OC)c(OC)c4)n3)cc2)cc1	>57	2%
COc1ccc2c(C(=O)CN(C)C3CCCCC3)c[nH]c2c1	>57	-1%
NC(=O)C1(N2CCCCC2)CCN(C(=O)CCCn2c(=O)[nH]c3ccsc3c2=O)CC1	>57	-2%
N#CC1=C(N)NC(SCC(=O)Nc2ccccc2)=C(C#N)C12CCCC2	>57	10µM*
O=C(CN(Cc1ccccc1Cl)C(=O)c1ccc(CN2CCOCC2)o1)NCc1ccccc1	>57	-6%
C=CCn1c(SCC(=O)Nc2cccc(OC)c2)nnc1-c1cccnc1	>57	-5%
Cc1sc2nc(SCC(=O)N3CCOCC3)[nH]c(=O)c2c1C	>57	14%
Cc1cc2ncn(-c3nnnn3-c3ccccc3)c2cc1C	>57	-4%
O=C1C2CC=CCC2C(=O)N1c1nc2n(n1)C(c1ccccc1)CC(c1ccccc1)N2 (stereo not given)	>57	?
O=C(CSc1ncn[nH]1)c1ccccc1	>57	10%
Cn1nc(C(=O)Nc2c(-c3ccccc3)nc3sccn23)c2ccccc2c1=O	>57	0%
Cn1nnc(NC(=O)c2cccc(OCc3ccccc3)c2)n1	>57	-2%
O=C(CCn1c(=S)[nH]c2cc3c(cc2c1=O)OCO3)N1CCN(c2ccccn2)CC1	>57	-11%
COC(=O)[C@@]1(Cc2ccc(OC)cc2)[C@H]2c3cc(C(=O)N4CCCC4)n(Cc4ccc(C(F)(F)F)nc4)c3C[C@H]2CN1C(=O)c1ccccc1	>57	?
Cc1cc(=O)oc2cc(OCC(=O)OCc3nnc(-c4ccccc4)o3)ccc12	>57	-1%
O=C(NC1CCCCC1)C(c1ccccc1F)N(Cc1ccco1)C(=O)Cn1nnc2ccccc21 (stereo not given)	>57	10%

Overlap with the part before: 7 compounds, followed by the next part.
SMILES	Prx2 Sm inh	LT uptake inh
O=C(CSc1ncn[nH]1)c1ccccc1	>57	10%
Cn1nc(C(=O)Nc2c(-c3ccccc3)nc3sccn23)c2ccccc2c1=O	>57	0%
Cn1nnc(NC(=O)c2cccc(OCc3ccccc3)c2)n1	>57	-2%
O=C(CCn1c(=S)[nH]c2cc3c(cc2c1=O)OCO3)N1CCN(c2ccccn2)CC1	>57	-11%
COC(=O)[C@@]1(Cc2ccc(OC)cc2)[C@H]2c3cc(C(=O)N4CCCC4)n(Cc4ccc(C(F)(F)F)nc4)c3C[C@H]2CN1C(=O)c1ccccc1	>57	?
Cc1cc(=O)oc2cc(OCC(=O)OCc3nnc(-c4ccccc4)o3)ccc12	>57	-1%
O=C(NC1CCCCC1)C(c1ccccc1F)N(Cc1ccco1)C(=O)Cn1nnc2ccccc21 (stereo not given)	>57	10%
CSc1ccc(S(=O)(=O)N2CCCC2)cc1	>57	-6%
O=C(/C(=N/O)c1ccccc1)c1ccccc1	.	-14%
Cc1cc(C)nc(N2CCC(C(=O)NC3CCCCCC3)CC2)n1	>57	-9%
Cc1cc(NC(=O)CCC(=O)N(CC2CCCO2)C(C(=O)NC2CCCC2)c2ccccc2C)no1 (stereo not given)	>57	3%
COC(=O)c1ccccc1NC(=O)CSc1nc(NC(=O)c2ccccc2)c2c(C)c(C)oc2n1	>57	12%
COc1ccccc1N1CCN(CCCCN2C(=O)CCC2=O)CC1	>57	?
CCC(c1nnnn1Cc1ccccc1)N(Cc1cc2cc(OC)ccc2[nH]c1=O)CC1CCCO1 (stereo not given)	>57	-14%
Cc1ccc(NC(=O)COc2ccc(/C(N)=N/O)cc2)cc1C	>57	20%
CCOc1cc(OCC)c(C(C)=O)cc1OCC	.	1%
COCCn1c(=O)c(-c2cn(C)c3ccccc23)nc2cnc(Oc3ccccc3)nc21	>57	?
O=C(O)C(Cc1ccccc1)Cc1ccccc1	>57	1%[8 µM]
COc1cc(C#CC#CCN2CCCCC2)ccc1O	>57	4%
CNc1nc(-c2ccccc2Cl)nc2ccccc12	.	23%
Cn1c(CC(=O)Nc2ccccc2)nnc1SCCOc1ccccc1	>57	7%

Shown with bars between the fields: part of the list above.
Molecule | Prx2 Sm inh | LT uptake inh
CCOc1cc(OCC)c(C(C)=O)cc1OCC | . | 1%
COCCn1c(=O)c(-c2cn(C)c3ccccc23)nc2cnc(Oc3ccccc3)nc21 | >57 | ?
O=C(O)C(Cc1ccccc1)Cc1ccccc1 | >57 | 1%[8 µM]
COc1cc(C#CC#CCN2CCCCC2)ccc1O | >57 | 4%
